TAR Tat displ – HIV-1 TAR-Tat binding disruption; AID 1259389; HIV-1 TAR RNA, Tat peptide displacement FRET; hits give high values; z-score (test concentration not listed); actives 0.6% (n = 100,000);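 note: score is relative to mean and SD of negative controls; some compounds called inactive have numbers as strong as hits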
CDC25B CDK2 inh – human CDC25B-CDK2/CyclinA binding inhibition; P30305+P24941; HTRF CDC25B-CDK2/CyclinA binding, anti-His/anti-Flag; hits give high values; actives 0.72% (n = 94,000); z-score (concentration not given with the values);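 note: score is relative to mean and SD of negative controls; strong numbers were not always called active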
* = called active by the depositor; . = no result given.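 Rule for the calls: active = z-score from 3 up in half or more of its runs; inactive = the rest.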

Every second line gives: TAR Tat displ, CDC25B CDK2 inh
Cc1ccc2c(CC(=O)Nc3nc4ccc(S(C)(=O)=O)cc4s3)coc2c1C
 : 2.9, -15
O=C(CCCn1ncn2c(cc3occc32)c1=O)NC1CCCc2ccccc21 (configuration not stated)
 : -1.5, -1.9
CCN1C(=O)c2ccccc2Sc2ccc(NC(=O)NCC3CCCN3CC)cc21 (configuration not stated)
 : -0.22, 0.22
COc1cc(OC)c(NS(=O)(=O)c2ccc(CN3C(=O)c4cccnc4C3=O)s2)cc1Cl
 : 0.06, .
O=C(O)c1ccc2c(c1)-c1nc3ccccc3n1C2=O
 : 2.2, -1.2
C=CCN1C(=O)C2(c3ccccc31)c1c(oc3ccc(C)cc3c1=O)C(=O)N2CCCOC (configuration not stated)
 : 1.4, 0.28
CCOC(=O)c1cc2c(=O)[nH]ccc2nc1C(F)(F)F
 : ., -2.1
O=C(O)c1ccc(S(=O)(=O)c2ccccc2)nc1
 : -0.84, -0.9
Cc1ccc(CCN2C(=O)CCC2(C)C(=O)NCc2cccnc2)cc1 (configuration not stated)
 : ., -1.7
CCN1CCCC1CNc1nc2ccc(C(=O)c3ccccc3)cc2n2cnnc12 (configuration not stated)
 : -1, .

(more compounds)
Every second line gives: TAR Tat displ, CDC25B CDK2 inh
C=CCSc1nnc(NC(=O)Cc2coc3ccc(CC)cc23)s1
 : 1.4, -1.2
O=C(NCc1ccccc1F)c1cc(-c2ccccn2)nc2ccc(Br)cc12
 : 1.5, .
CNC(=O)c1c(NC(=O)c2ccc(Cc3ccccc3)cc2)sc2c1CCC2
 : -1.5, .
COc1nnc(-c2ccc(C)c(S(=O)(=O)NCc3cccnc3)c2)c2ccccc12
 : 1.1, -0.08
COc1cc(C2OCC3(CO)C(C)C=C(C)C2C3C)ccc1O (configuration not stated)
 : -0.88, -0.12
Cc1csc2sc(C(=O)Nc3ccc(Cl)cc3)c(C)c12
 : ., -2.9
Cc1ccc(-n2ncc3c(NCCN4CCOCC4)ncnc32)cc1C
 : 2.9, .
CCCNc1cc(C)nc2c(-c3ccc(F)cc3)cnn12
 : 0.09, -0.96
CC(C)OCCCNS(=O)(=O)c1ccc2[nH]c(=O)ccc2c1
 : 1.8, .
Brc1ccc(-c2nnc3n2CCC3)cc1
 : ., -0.12

Next compounds:
Every second line gives: TAR Tat displ, CDC25B CDK2 inh
COc1cc(OC)cc(-c2nnc(SCC(=O)N3CCc4ccccc43)o2)c1
 : 0.65, 0.13
Cc1cccc(Nc2ccc(Cl)cc2[N+](=O)[O-])c1
 : ., -2.4
O=C(O)c1ccc(CS(=O)c2ccc(Br)cc2)o1 (configuration not stated)
 : 0.87, .
COc1ccc(-c2cccc(NS(=O)(=O)c3ccc(C)cc3C)c2)nn1
 : 0.73, .
CCCCCCC(=O)Nc1ccc2nc3c(=O)[nH]c(=O)[nH]c3nc2c1
 : -0.11, 1.6
CS(=O)(=O)CCC(C(=O)NCc1cccs1)N1Cc2ccccc2C1=O (configuration not stated)
 : 1.4, .
CCN1CCN(C(=O)CCC(=O)N2CCCn3nc(C)cc32)CC1
 : 0.5, .
CCOC(=O)NN(C(=O)OCC)/C(=C\C=C\N1CCCC1)c1nnn(-c2ccc(Cl)cc2)n1
 : ., -2.9
COc1ccccc1C1CC(=O)C2=C(C1)NC(C)=C(C(=O)OCC1CCCO1)C2c1cccs1 (configuration not stated)
 : 1.6, -1.1
CC(C)n1c(=O)c2ccc(C(=O)NC3CCCCC3)cc2n2c(=O)[nH]nc12
 : 0.79, -0.78

Later entries:
Every second line gives: TAR Tat displ, CDC25B CDK2 inh
NC(=O)C1(N2CCCCC2)CCN(C(=O)Nc2ccc(F)cc2)CC1
 : ., -1.5
CC1=C(C(=O)OC2CCCCC2)C(c2ccc3c(c2)OCO3)C2=C(CCCC2=O)N1 (configuration not stated)
 : 1.3, 0.02
CC1CCN(CC(O)COc2ccc(F)cc2)CC1 (configuration not stated)
 : 0.85, -2.8
CCc1nc(-c2csc(S(=O)(=O)N3CCC(C(=O)N4CCOCC4)CC3)c2)no1
 : 0.63, .
Cc1cc(=O)c2c(O)c(O)ccc2o1
 : ., -2.2
CCCn1c2ccccc2c2cnn(CC(=O)NCCN(C)C)c(=O)c21
 : 1.8, .
CC1=NS(=O)(=O)c2cc(S(=O)(=O)CC(=O)Nc3cc(Cl)ccc3C)ccc2N1
 : 1.6, .
OCCCn1c(-c2ccccc2)cn2c3ccccc3nc12
 : 0.85, -0.41
O=C(O)Cc1cncc(Br)c1
 : ., -2.1
COc1ccc(-c2cc(C(=O)O)c3c(-c4ccc(Br)cc4)[nH]nc3n2)cc1
 : 3, .

Six compounds drawn at random from the list so far, as already listed:
Every second line gives: TAR Tat displ, CDC25B CDK2 inh
CCc1nc(-c2csc(S(=O)(=O)N3CCC(C(=O)N4CCOCC4)CC3)c2)no1
 : 0.63, .
O=C(O)Cc1cncc(Br)c1
 : ., -2.1
CC1CCN(CC(O)COc2ccc(F)cc2)CC1 (configuration not stated)
 : 0.85, -2.8
CC1=C(C(=O)OC2CCCCC2)C(c2ccc3c(c2)OCO3)C2=C(CCCC2=O)N1 (configuration not stated)
 : 1.3, 0.02
COc1ccc(-c2cc(C(=O)O)c3c(-c4ccc(Br)cc4)[nH]nc3n2)cc1
 : 3, .
NC(=O)C1(N2CCCCC2)CCN(C(=O)Nc2ccc(F)cc2)CC1
 : ., -1.5

Following part
Every second line gives: TAR Tat displ, CDC25B CDK2 inh
CN(C)CCNc1ncnc2sc3c(c12)CCCC3
 : ., -0.81
CCOC(=O)N1CCN(c2c(NCCCN3CCCC3)c(=O)c2=O)CC1
 : -0.51, -1.7
Cn1c(SCC(=O)NC2CCCCC2)ncc(C(=O)Nc2ccc(F)cc2)c1=O
 : 0.08, .
Cn1cnc2c(=O)oc3ccc(S(=O)(=O)N4CCN(c5cccc(Cl)c5)CC4)cc3c21
 : 1.4, .
O=C1c2oc3ccccc3c(=O)c2C(c2cccnc2)N1c1ccccn1 (configuration not stated)
 : 1.2, -1.1
CCN(CC)c1ccc(Nc2c(-c3ccc(C(C)C)cc3)c(=O)c2=O)c(C)c1
 : 1.6, .
O=c1oc2ccccc2cc1-c1ccn[nH]1
 : ., -2.2
O=C(CCCN1CCC(c2ccccc2)C1)c1ccc2c(c1)OCCO2 (configuration not stated)
 : ., -0.39
CCOC(=O)c1sc2nc(C)c(N=Nc3ccccc3)c(C)c2c1N
 : ., -1.5
CNc1nc(Nc2cccc(C)c2)c2cnn(C)c2n1
 : -0.12, .

(next part)
Every second line gives: TAR Tat displ, CDC25B CDK2 inh
CCOC(=O)c1c(S(=O)(=O)Nc2ccc(OC)c(Cl)c2)c(C)n(C)c1C
 : 0.64, .
CCOC(=O)N1CCN(S(=O)(=O)c2cccs2)CC1
 : ., -2.1
CN(C(=O)c1ccc(Br)o1)C1CCS(=O)(=O)C1 (configuration not stated)
 : ., -0.59
Cc1ccc(N2C(=O)c3[nH]nc(-c4ccc(Cl)cc4)c3C2c2cccnc2)cc1 (configuration not stated)
 : ., -3.5
O=C(c1cc(=O)c2ccccc2o1)N(Cc1ccc(Cl)cc1)Cc1ccco1
 : 2, 0.06
Cc1nnc(SCC(=O)Nc2ccc(Br)cc2F)c2cc3sccc3n12
 : 2.4, .
COc1ccc(-c2noc(C(C)Oc3ccc(C)cc3)n2)cc1 (configuration not stated)
 : -0.77, -0.87
CCN(CC)CCCNC(=O)c1sc2nc3n(c(=O)c2c1C)CCCC3
 : 1.4, .
Cc1ccc(N2C(=O)c3oc4ccccc4c(=O)c3C2c2ccc(F)cc2)nc1 (configuration not stated)
 : 0.47, 0.74
CCN(C(=O)c1cc2c(C)nc3ccccc3c2o1)c1cccc(Cl)c1
 : 1.6, 0.22

Following part:
Every second line gives: TAR Tat displ, CDC25B CDK2 inh
Cc1ccc(C(CNC(=O)c2sc3ccccc3c2Cl)N(C)C)o1 (configuration not stated)
 : -0.07, 1.7
O=C(Nc1ccccc1F)c1c2c(nc3ccccc13)C(=O)N(C1CCCCC1)C2
 : -0.3, .
CSc1nc(=O)c2c(n1C)NC(=O)CC2c1ccc(OC(C)C)cc1 (configuration not stated)
 : 0.03, -1.8
COc1ccc(OC)c(S(=O)(=O)n2nc(C)c(S(=O)(=O)N3CCOCC3)c2C)c1
 : 1, .
O=C1NC(c2ccccc2)Nc2c1sc(=S)n2-c1ccccc1 (configuration not stated)
 : 0.77, -2.5
COc1ccc(C(=O)Oc2cc3c4c(c2)C(C)=CC(C)(C)N4C(=O)C3=O)cc1
 : 0.87, -1.4
CCCN(C(=O)c1noc2c1CCc1sccc1-2)c1ccc(F)cc1
 : 0.69, .
CCCCC1=NN(C(=O)c2ccc(Br)cc2)C(O)(C(F)(F)F)C1 (configuration not stated)
 : ., -0.66
CCOC(=O)c1nc(Nc2cc(F)ccc2F)c2ccccc2n1
 : -0.01, .
COc1ccc(C2c3c(-c4ccccc4)n[nH]c(=O)c3Nc3nnnn32)c(OC)c1 (configuration not stated)
 : -0.12, -0.06

The list goes on:
Every second line gives: TAR Tat displ, CDC25B CDK2 inh
O=c1[nH]c(-c2cc(Cl)ccc2O)nc2c1Cc1cc(Br)ccc1O2
 : -0.37, -2.4
O=C(Cn1nc(-c2ccccc2)c2ccccc2c1=O)c1ccc(F)cc1
 : 0.74, -2.8
O=C(CSc1cccs1)Nc1cc(C(F)(F)F)cc(C(F)(F)F)c1
 : ., 0.4
CCSc1nc(=O)n(-c2cccc(OC)c2)c2c1CCC2
 : -0.48, 0.61
COc1cccc(-c2noc(N3CCCCC3)n2)c1
 : -1.2, .
CCC(C)c1ccccc1OCC(O)CN1C(=O)NC(C)(C)C1=O (configuration not stated)
 : -0.37, -0.42
COc1ccc(C(=O)CC2(O)C(=O)Nc3ccc(Br)cc32)cc1OC (configuration not stated)
 : ., -0.44
O=C(NCCn1c(-c2ccccc2)nc2ccccc21)NC1CCCCC1
 : 0.8, .
C=CCn1c(COc2ccccc2C)nc2ccccc21
 : 2.7, -0.71
COc1ccc(N(C2C=CS(=O)(=O)C2)S(=O)(=O)c2ccc(Cl)cc2)cc1 (configuration not stated)
 : 1.7, -2.8

Remaining list, next part.
Every second line gives: TAR Tat displ, CDC25B CDK2 inh
CCc1nc(Oc2ccccc2F)c2oc3ccccc3c2n1
 : 1.6, .
Cc1ccc(-c2noc(CN3CCN(c4ccccn4)CC3)n2)cc1
 : 0.12, -1.5
Cc1nn(-c2nncc(-c3ccccc3)n2)c2c1C(c1cccc(OC(C)C)c1)CC(=O)N2 (configuration not stated)
 : 1.5, .
COc1cc(Cl)c(NS(=O)(=O)c2cc3[nH]c4c(c3cc2C)C(=O)CC(C)(C)C4)c(OC)c1
 : -6.4, .
Cc1cc2c3c([nH]c2cc1S(=O)(=O)Nc1ccccc1Cl)CC(C)(C)CC3=O
 : -1.3, .
Cc1cc(C)c(S(=O)(=O)Nc2noc3ccccc23)c(C)c1
 : 0.12, 0.5
OCCSc1ccc(Oc2ccc(SCCO)cc2)cc1
 : 1.5, -2.9
C=CCSc1ncc(Cl)c(C(=O)Nc2ccccc2F)n1
 : 0.19, 1
CC1CCC(C(=O)Oc2ccc(Cl)cc2)CC1 (configuration not stated)
 : 1.8, -0.01
CCn1cc(C2=NOC(C(=O)N3CCC(C)CC3)C2)c(C)n1 (configuration not stated)
 : -0.02, -0.15

(listing goes on)
Every second line gives: TAR Tat displ, CDC25B CDK2 inh
Cc1ccc(-n2cc(-c3ccccc3)c3c(NCC4CCCO4)ncnc32)cc1Cl (configuration not stated)
 : ., -1.9
Cc1ccc2c(=O)cc(C(=O)Nc3ccc4nsnc4c3)oc2c1C
 : 1.9, -1.6
CCOC(=O)c1nc(N2CCN(c3ccccc3)CC2)c2ccccc2n1
 : 1.2, .
CC(CC(=O)N1CCN(c2ccc(F)cc2)CC1)CC1=NS(=O)(=O)c2ccccc2N1 (configuration not stated)
 : 1.8, .
COc1ccc(C2=C(C)C(N3CCC(C)CC3)=NS2(=O)=O)cc1
 : 1.2, -0.49
CCOc1ccc(NS(=O)(=O)c2ccc(-c3cc(C(F)(F)F)on3)s2)cc1
 : 1.6, .
Cc1nnsc1C(=O)NNc1cc(Cl)ccc1Cl
 : ., -1.2
CCCS(=O)(=O)/C(C#N)=C\OCC
 : ., -1.3
Cc1csc(NC(=O)Cn2cnc3c2c(=O)n(C)c(=O)n3C)n1
 : -0.36, 0.42
COCCn1c(CNS(=O)(=O)Cc2ccccc2)nc2cccnc21
 : 1.9, .

Other structures follow.
Every second line gives: TAR Tat displ, CDC25B CDK2 inh
COC(=O)c1sc(=S)n(-c2cc(Cl)ccc2C)c1N
 : 1.9, .
Nc1ccccc1NC(=O)CCCCCCC(=O)Nc1ccccc1
 : 2, .
Cc1ccc2nc(CN3CCN(S(=O)(=O)c4ccc(C)c(C)c4)CC3)oc2c1
 : 2, .
CC(=O)Nc1ccc2c(c1)CCc1ccccc1-2
 : ., -0.46
O=C1CCc2cc(S(=O)(=O)N3CCC(C(=O)NCCC4=CCCCC4)CC3)ccc2N1
 : ., 0.04
COc1ccc(Cn2c(CO)nc3ccccc32)cc1OC
 : ., -0.89
Cc1ccc(C)c(NC(=O)CSc2nnc(C)n3c2cc2sccc23)c1
 : 1.8, .
O=C1C(=O)N(c2nccs2)C(c2ccccc2Cl)/C1=C(/O)c1ccc(F)cc1 (configuration not stated)
 : -6.6, -0.94
O=C(O)c1ccc(N2COc3ccc4cc(Br)ccc4c3C2)cc1
 : ., 1.4
c1ccc2c(c1)[nH]c1nc(SCCN3CCCCC3)nnc12
 : -1.2, -1.2

(next part)
Every second line gives: TAR Tat displ, CDC25B CDK2 inh
CSc1sc(=S)sc1SC
 : ., -0.72
CCOC(=O)c1c(NC(=O)c2nc3nc(C)cc(C(F)F)n3n2)sc2c1CCC(C)C2 (configuration not stated)
 : -1.7, 0.34
O=C(NC1CCCC1)c1cc2n(n1)C(C(F)(F)F)CC(c1ccc(F)cc1)N2 (configuration not stated)
 : 2.4, -1.9
CC(=O)c1c(C)[nH]c(C(=O)N2CCC(N3CCCCC3)CC2)c1C
 : ., -0.26

Screening data: PubChem BioAssay, Center for Chemical Genomics, University of Michigan
